Hsc70: small molecules displacing fluorescent ligand from Hsc70 – biochemical, fluorescence polarization, primary screen (AID 568); 83,000 tested, under 10 active; Hsc70 fluorescence polarization, probe displacement; higher % means a stronger effect; strong numbers were not always called active; displacement, % at 20 µM, or IC50 in µM where a hit was titrated;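 active = displacement above 50% without optical interference and an IC50 on retest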;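 note: ATPase domain with a fluorescein-tagged ATP probe; 0% = vehicle and 100% = excess ADP; read after one hour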
WNV NS2B-NS3 inh: inhibitors of West Nile virus NS2B-NS3 protease; P06935; WNV NS2B-NS3 protease, fluorogenic substrate Ex360/Em465; stronger effect = lower value; z-score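 (tested at a level between 10 and 100 µM)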; AID 577; 65,000 tested, 0.18% active;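 active = z-score at -3 or under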;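 note: score is relative to mean and spread of the compound wells of a plate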
Target sequence (P06935 1371-1501 limits assumed): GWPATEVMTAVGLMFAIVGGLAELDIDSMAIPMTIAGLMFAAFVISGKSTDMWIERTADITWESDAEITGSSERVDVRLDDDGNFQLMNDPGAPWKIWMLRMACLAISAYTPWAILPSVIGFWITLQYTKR
Target sequence (P06935 1502-1679 limits assumed): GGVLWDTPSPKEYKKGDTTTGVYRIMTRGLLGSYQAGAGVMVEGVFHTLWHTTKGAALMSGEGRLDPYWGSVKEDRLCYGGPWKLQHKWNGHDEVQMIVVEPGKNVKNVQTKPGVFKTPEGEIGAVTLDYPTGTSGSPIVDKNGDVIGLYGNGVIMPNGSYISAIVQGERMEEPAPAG
MT1-MMP reporter: inhibitors of MT1-MMP promoter transcription, cell-based, luciferase reporter, luminescence (AID 618) | MT1-MMP promoter luciferase reporter cells, luminescence | 87,000 tested, 0.62% active | calls from a first round at 10 µM; hits with a dose series show EC50 in µM;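 active = over half of the reporter light lost at 10 µM or EC50 under 50 µM; inactive = the rest and hits that failed the dose series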;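 note: actives suppress MT1-MMP promoter-driven transcription so potencies describe inhibitors; HT1080 fibrosarcoma cells; overnight exposure; toxic or luciferase-blocking compounds were not removed from the actives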
* hit, by the source's call; i = inactive; / = no result given.

SMILES	Hsc70	WNV NS2B-NS3 inh	MT1-MMP reporter
COc1ccc(S(=O)(=O)NCC2CCC(C(=O)N3CCC4(CC3)OCCO4)CC2)cc1 (centres undefined)	-1.2%	0.89	i
CCn1c(SCC(=O)NCCc2ccccc2)nnc1-c1cccs1	-3.1%	-0.8	i
O=C(O)CCC(=O)NCCn1c(-c2ccccc2)csc1=Nc1ccccc1	1.3%	-1.6	i
CS(=O)(=O)N1CCC(C(=O)Nc2cccc(C(F)(F)F)c2)CC1	-3.1%	0.46	i
CC(CO)Nc1nc(SCc2ccccc2)nc2sc3c(c12)CCC3 (centres undefined)	-4.0%	/	i
CCCCOc1ccc(OCCNS(=O)(=O)N(C)C)cc1	1.8%	-1.4	i
CC(=O)Nc1ccc(OCC=C(Cl)Cl)cc1	1.3%	-0.9	i
CCOC(=O)c1ccc2c(c1)n(CCO)c(C)[n+]2CC	3.0%	1	i
CCN(CC)CCNC(=O)Cc1nn(CC)c(=O)c2ccccc12	1.0%	-0.44	i
CCOC(=O)c1sc2nccc(N(C)C)c2c1N=CN(C)C	0.1%	-1	i
COc1ccc(CN2C(=O)CCC2(C)C(=O)NC2CCCCC2)c(OC)c1 (centres undefined)	-3.0%	0.03	i
Cc1nn(-c2ccc(C(F)(F)F)cn2)c(C)c1Oc1ccccc1O	6.2%	/	i
O=C(NCC(=O)N(c1ccccc1)C(C(=O)NC1CCCC1)c1ccncc1)c1ccco1 (centres undefined)	4.4%	/	i
CC1CC(C)(C)NC(=S)S1 (centres undefined)	-0.2%	0.38	i
Cc1ccccc1C(=O)c1cccn1CC(=O)NCc1ccco1	-5.8%	1.2	i
CN1CCN(Cc2c(O)ccc3c2oc(=O)c2ccccc23)CC1	4.5%	-0.03	i
COc1ccc(N2C(=O)CSC23C(=O)N2CCCc4cccc3c42)cc1 (centres undefined)	-4.1%	0.86	i
Cc1ccc2cc(C(c3nnnn3C(C)(C)C)N3CCCC3)c(=O)[nH]c2c1C (centres undefined)	-0.6%	-0.67	i
CC(=O)Nc1cc(C(=O)c2ccccc2)ccc1N1CCOCC1	-4.3%	0.95	i
COC(=O)c1cccc(OC(N)=O)c1	2.3%	1.8	i
Cc1ccc(-c2c3c(=O)n(C)c(=O)n(C)c3cn2-c2ccccc2O)cc1	8.5%	0.78	i
Cc1nc(Nc2nc(=O)c3ccccc3n2C)nc2c(C)cccc12	-3.6%	-0.53	i
Cc1ccc(NC2c3ncccc3C(=O)N2C2CCCCC2)cc1 (centres undefined)	-0.7%	0.29	i
CC1(C)CC(=O)C2=C(C1)OC(/N=C/N1CCOCC1)=C(C#N)C2c1ccccc1 (centres undefined)	-0.7%	-0.54	i
CN1CC(=O)Nc2ccc(F)cc2C1=O	5.0%	-0.01	i

Next part
SMILES	Hsc70	WNV NS2B-NS3 inh	MT1-MMP reporter
O=C(CCSc1ccc(F)cc1)Nc1ccc(-n2cnnn2)cc1	4.4%	-0.43	i
COc1ccccc1N1CCN(C(=O)CN(c2ccc(C)c(C)c2)S(C)(=O)=O)CC1	1.5%	/	i
Cc1ccc(NCN2C(=O)C3C4C=CC(C4)C3C2=O)cc1 (centres undefined)	2.3%	-0.82	i
Cc1ccc(-n2ncc3c(=O)[nH]c(SCC(=O)N4CCOCC4)nc32)cc1	1.8%	-0.96	i
C=CCn1c(N)cc(=O)nc1SC(C)C(=O)Nc1cccc2ccccc12 (centres undefined)	1.3%	/	i
CCn1c(=O)c2cc(C(=O)NCCN3CCOCC3)sc2c2ccccc21	0.9%	-0.67	i
CC1CCCCN1S(=O)(=O)c1ccc(NC(=O)c2cccs2)cc1 (centres undefined)	7.8%	0.58	i
CCn1c(=O)c(C(=O)Nc2cccnc2)c(O)c2ccccc21	-44%	0.31	i
CCC(=O)Nc1ccc(N2CCN(Cc3ccccc3F)CC2)cc1	-2.2%	-0.42	i
CN1C(=O)c2ccc(C(=O)NC3CCCCC3)cc2C1=O	6.0%	-0.28	i
CNc1nc(-c2c[nH]c3ccccc23)cs1	-1.6%	/	i
O=C(C1CCC1)N1CCc2cc(S(=O)(=O)NCc3ccco3)ccc21	-0.3%	-0.28	i
CCCn1c(CNC(=O)c2ccccc2)nc2ccccc21	-4.9%	0.64	i
CC1CCCCN1C(=O)CSc1nc2cc3c(cc2c(=O)n1Cc1ccc2c(c1)OCO2)OCO3 (centres undefined)	0.0%	1.4	i
CC1CCN(S(=O)(=O)c2ccc(NC(=O)Cc3ccccc3)cc2)CC1	9.5%	/	i
COc1ccc(CCNC(=O)Cn2cnc3c2c(=O)n(C)c(=O)n3C)cc1OC	-4.7%	-0.5	i
O=C(CCc1ccccc1)Nc1cccc(NC(=O)CCc2ccccc2)c1	-0.3%	/	i
CCOc1ccc(C(=O)CCN2CCCCC2)cc1	-10%	-0.07	i
Cc1ccc(S(=O)(=O)NC2=NCCC2)cc1	-0.7%	-0.46	i
Cc1ccc(-c2nnn(CC(=O)N(CC(=O)NC3CCCCC3)c3cnc4ccccc4c3)n2)o1	5.2%	-0.25	i
O=C(O)C1CC(O)CN1S(=O)(=O)c1cccs1 (centres undefined)	0.3%	/	i
CC1(C)Cc2nc3sc4c(=O)n(CC(=O)NCc5ccco5)cnc4c3cc2CO1	-1.3%	-0.38	i
COc1ccccc1NC(=O)CN1CCN(CC(=O)Nc2ccc3c(c2)OCCO3)CC1	-0.5%	0.74	i
CCN(c1cccc(C)c1)S(=O)(=O)c1ccc2[nH]c(=O)c(=O)[nH]c2c1	-3.5%	0.98	i
CN1CCn2c1nc(N1CCOCC1)nc2=O	-3.2%	0.11	i

Following part:
SMILES	Hsc70	WNV NS2B-NS3 inh	MT1-MMP reporter
CCN1CCCC(OC(=O)Nc2ccccc2)C1 (centres undefined)	-2.9%	-0.12	i
CCOC(=O)N1CCN(S(=O)(=O)c2cccc3cccnc23)CC1	0.6%	0.33	i
CC(C)Sc1nc2c(c(=O)n(C)c(=O)n2C)n1C	-5.8%	-0.72	i
CC(C)C(c1nnnn1Cc1ccco1)N1CCN(c2nc3ccccc3s2)CC1 (centres undefined)	0.8%	-1.4	i
Cc1ccc2c(c1)c1ncn(CCC3=CCCCC3)c(=O)c1n2C	-4.3%	-0.99	i
CCCNC(=O)Cc1c(O)c2ccccc2[nH]c1=O	-2.3%	/	i
CCCCCC1CCC(C(=O)O)CC1 (centres undefined)	5.7%	-1.3	i
O=C(c1cc(C2CC2)nc2ccc(Br)cc12)N1N=C(C(F)F)CC1(O)C(F)F (centres undefined)	3.4%	/	i
Cc1ccc(S(=O)(=O)N(CC(=O)N2CCC(C)CC2)Cc2ccccc2F)cc1	-8.7%	/	i
COc1ccc(NC(=O)C(F)(F)F)cc1OC	1.7%	/	i
CC1CCN(C(=O)CSc2nnc(-c3cccnc3)n2C2CCCCC2)CC1	6.9%	-0.71	i
Cc1cc(N2CCCC(C(=O)Nc3ccc4c(c3)CCC4)C2)n2ncnc2n1 (centres undefined)	4.1%	-0.37	i
Nc1ccc(N2CCCCCC2)cc1	-3.9%	-0.66	i
COc1cc(OC)nc(NC(=O)CSc2nc3ccccc3[nH]2)n1	7.2%	-0.33	i
CCOC(=O)c1ccccc1NC(=O)CSc1nc2ccccc2o1	0.2%	0.2	i
O=C(CCc1ccccc1)Nc1ccc2c(c1)OCCO2	5.5%	/	i
CCOCC(=O)Nc1nnc(C)s1	0.6%	1.5	i
COc1cc(C2C(C#N)=C(N)Oc3cc(O)ccc32)cc2c1OCO2 (centres undefined)	1.0%	-1.4	i
CCCS(=O)(=O)N1CCCC(C(=O)NCc2cccnc2)C1 (centres undefined)	-5.0%	1.2	i
O=C(NC1CCCC1)c1ccc(CSCc2ccccc2F)o1	-6.2%	/	i
CCOc1ccc(C2/C(=C(\O)c3ccc(OC)c(OC)c3)C(=O)C(=O)N2c2cc(C)on2)cc1OC (centres undefined)	-0.7%	-0.56	i
CC(C)c1cc(C(N)=O)c(NC(=O)C2CCC2)s1	-1.9%	-0.52	i
CCCn1cc(S(=O)(=O)CC(=O)Nc2ccc(OC)cc2OC)c2ccccc21	2.4%	/	i
COCCNC(=O)c1ccc2c(c1)nc(C)n2-c1cccc(F)c1	-1.3%	0.26	i
CCC(C)(C)NC(=O)C(c1ccccc1)N(Cc1cccnc1)C(=O)c1csnn1 (centres undefined)	4.9%	/	i

Full records from above:
CCOC(=O)N1CCN(S(=O)(=O)c2cccc3cccnc23)CC1 is listed with Hsc70 = 0.6%; WNV NS2B-NS3 inh = 0.33; MT1-MMP reporter = i
CC1CCN(C(=O)CSc2nnc(-c3cccnc3)n2C2CCCCC2)CC1 is listed with Hsc70 = 6.9%; WNV NS2B-NS3 inh = -0.71; MT1-MMP reporter = i

The list goes on.
SMILES	Hsc70	WNV NS2B-NS3 inh	MT1-MMP reporter
Cn1cc(CC(=O)NCCCN2CCCC2=O)c2ccccc21	3.1%	-1.1	i
O=C(c1ccco1)N1CCN(c2ncccn2)CC1	3.9%	0.26	i
COc1ccc(OC)c(-c2cc(C(=O)Nc3c(C)nn(Cc4ccccc4Cl)c3C)no2)c1	6.5%	-0.79	i
Cc1ccc(CC(=O)N2CCC(c3nc4c(nnn4Cc4ccccc4)c(=O)[nH]3)CC2)cc1	2.9%	0.39	i
Cn1c(=O)c2c(SC3CCCC3)nc(C3CC3)nc2n(C)c1=O	4.4%	-1	i
CN(Cc1ccccc1)C(=O)COc1ccccc1	1.7%	/	i
COc1ccc(NC(=O)Nc2ccc(C)cc2OC(F)F)cc1OC	-3.4%	-0.33	i
COc1cccc(N2CCN(Cc3ccsc3)CC2)c1	5.5%	/	i
CCOC(=O)c1c(C)oc2ccc(OCC(=O)C(C)(C)C)cc12	0.2%	-0.28	i
CCOC(=O)CC1=C(C(=O)OCC)C(c2ccc(OC)c(OC)c2)C(C#N)=C(N)O1 (centres undefined)	3.0%	-0.91	i
Nc1cc(C(=O)c2cccs2)ccc1Cl	-7.4%	-0.67	i
COC(=O)CN(C#N)c1nc(NC(C)C)nc(OC)n1	2.2%	/	i
N#Cc1nc(-c2cccs2)oc1NCCN1CCOCC1	-4.5%	0.56	i
CCCOC(=O)Nc1nc2ccccc2o1	-9.6%	1.2	i
CC(C)C1Oc2ccccc2N(CC(=O)N(Cc2ccncc2)Cc2ccco2)C1=O (centres undefined)	-1.3%	/	i
CCOC(=O)c1c(NC(=O)c2ccc(S(=O)(=O)N3CCOCC3)cc2)sc2c1CCN(C)C2	-15%	-1.4	i
COc1ccccc1NC(=O)Cn1cnc2sc(C)c(S(=O)(=O)N3CCCCC3)c2c1=O	-0.4%	/	i
C=CCNC(=O)c1cc(-c2ccc(Br)cc2)on1	-3.6%	1.1	i
O=C(O)CCC(=O)c1ccc2c(c1)OCCCO2	-4.5%	-0.5	i
CCC(Sc1nncn1C)C(=O)Nc1ccccc1OC (centres undefined)	0.4%	0.68	i
O=C(Nc1cccc(NC(=O)c2ccco2)c1)c1ccc2c(c1)OCO2	0.7%	1.1	i
CCC1CCCCN1C(=O)Cn1c(C(=O)OC)cc2sc(Cl)cc21 (centres undefined)	-0.8%	-0.85	i
Cc1cccc(Oc2ccc(N)cc2)c1	2.4%	/	i
O=C(Nc1ccccc1Cl)c1cc(S(=O)(=O)N2CCOCC2)cs1	3.6%	/	i
Cn1c(NCC2CCCO2)nc2c1c(=O)n(Cc1ccccc1)c(=O)n2C (centres undefined)	3.1%	2	i

The results go on:
SMILES	Hsc70	WNV NS2B-NS3 inh	MT1-MMP reporter
CCc1nc2sc(C#N)c(N)c2c2c1CCCC2	0.4%	/	i
NC(=O)c1cnn2c(C(F)(F)F)cc(-c3ccc(F)cc3)nc12	2.4%	-1	i
CCn1c(COc2ccc(C)cc2)nnc1SCc1ccc(C#N)cc1	3.6%	/	i
Cn1c(C(=O)N2CCCC(C(=O)O)C2)cc2sccc21 (centres undefined)	0.9%	1.2	i
Cc1cc(NC(=O)COc2ccc(Cl)cc2Cl)n(CCC#N)n1	-0.7%	-1.8	i
Cc1cc(NCc2ccco2)n2c(nc3ccccc32)c1C#N	-0.2%	2.2	i
COc1cc(S(=O)(=O)N2CCCC3(CCCCC3)C2)ccc1-n1cnnn1	0.5%	-0.21	i
COc1ccc(-c2nc(-c3ccc(NC(=O)c4ccncc4)cc3)no2)cc1OC	-5.8%	0.95	i
O=C(NC1CC1)c1scc2c1OCCO2	1.9%	0.02	i
CCOc1ccc2nc(NC(=O)CSc3nnc(-c4ccncc4)n3CC3CCCO3)sc2c1 (centres undefined)	1.2%	-1	i
C=CCN(CC=C)C(=O)c1ccncc1	3.9%	-0.21	i

Reprinted at random: 4 compounds from above
SMILES	Hsc70	WNV NS2B-NS3 inh	MT1-MMP reporter
C=CCN(CC=C)C(=O)c1ccncc1	3.9%	-0.21	i
Cn1c(C(=O)N2CCCC(C(=O)O)C2)cc2sccc21 (centres undefined)	0.9%	1.2	i
CCOc1ccc2nc(NC(=O)CSc3nnc(-c4ccncc4)n3CC3CCCO3)sc2c1 (centres undefined)	1.2%	-1	i
Cc1cc(NCc2ccco2)n2c(nc3ccccc32)c1C#N	-0.2%	2.2	i

By substructure, the compounds so far with a tert-butyl group.
SMILES	Hsc70	WNV NS2B-NS3 inh	MT1-MMP reporter
Cc1ccc2cc(C(c3nnnn3C(C)(C)C)N3CCCC3)c(=O)[nH]c2c1C (centres undefined)	-0.6%	-0.67	i
CCOC(=O)c1c(C)oc2ccc(OCC(=O)C(C)(C)C)cc12	0.2%	-0.28	i

Bioassay records from PubChem BioAssay.
